KCNQ2 inh: KCNQ2 channel blockers in CHO-K1 cells – cell-based, FluxOR thallium flux, B-score, primary screen (AID 2156); B-score at 10 µM; 20 min; active compounds read low; only compounds with negative scores are shown here; some inactives read as strong as hits; 310,000 tested, 1.1% active;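 active means fluorescence ratio B-score at most minus 3 library SDs, with starting brightness B-score within 2 library SDs, cut at about -5.5 in these data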
Target sequence (O88943 whole entry, looked up): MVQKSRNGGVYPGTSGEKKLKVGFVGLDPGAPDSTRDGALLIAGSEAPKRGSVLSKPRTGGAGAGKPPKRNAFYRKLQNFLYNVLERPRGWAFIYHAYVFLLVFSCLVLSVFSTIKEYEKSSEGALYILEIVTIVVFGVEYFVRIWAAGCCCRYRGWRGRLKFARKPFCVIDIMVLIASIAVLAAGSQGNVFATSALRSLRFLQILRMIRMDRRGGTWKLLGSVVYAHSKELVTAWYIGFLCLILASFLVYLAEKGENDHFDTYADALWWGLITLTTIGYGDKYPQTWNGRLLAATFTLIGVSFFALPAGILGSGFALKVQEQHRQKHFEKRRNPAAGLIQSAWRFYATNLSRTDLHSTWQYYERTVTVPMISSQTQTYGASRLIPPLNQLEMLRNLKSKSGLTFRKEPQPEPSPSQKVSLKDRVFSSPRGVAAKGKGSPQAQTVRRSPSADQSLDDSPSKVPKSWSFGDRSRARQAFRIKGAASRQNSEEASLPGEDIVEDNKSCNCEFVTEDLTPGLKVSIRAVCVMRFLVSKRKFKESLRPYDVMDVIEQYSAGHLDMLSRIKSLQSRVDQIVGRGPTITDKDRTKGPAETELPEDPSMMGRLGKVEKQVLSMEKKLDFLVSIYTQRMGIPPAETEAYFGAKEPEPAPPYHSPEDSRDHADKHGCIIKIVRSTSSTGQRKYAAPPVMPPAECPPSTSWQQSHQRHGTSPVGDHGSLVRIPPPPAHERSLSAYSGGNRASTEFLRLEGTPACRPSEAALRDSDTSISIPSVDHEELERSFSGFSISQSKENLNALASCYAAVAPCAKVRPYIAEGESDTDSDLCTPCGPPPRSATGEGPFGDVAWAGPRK
KCNQ2 inh baseline: also measured in KCNQ2 inh; calls as there; B-score; measured here: initial fluorescence intensity artifact check;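 brightness before thallium and not channel activity; 0 = typical well and far values either way flag optical interference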
Numbers without * were called inactive; i = inactive.

| # | SMILES | KCNQ2 inh | KCNQ2 inh baseline |
| --- | --- | --- | --- |
| 1 | Cc1cc(C)c(NC(=O)COC(=O)c2cccc3c2C(=O)c2ccccc2C3=O)c(C)c1 | i | -0.08 |
| 2 | C/C(=N\NC(=O)CNC(=O)C(c1ccccc1)c1ccccc1)c1ccc(C(C)(C)C)cc1 | i | 1.9 |
| 3 | CC(=O)N1N=C(c2cccc([N+](=O)[O-])c2)OC1c1cccc(Br)c1 (stereo not given) | i | 0.36 |
| 4 | CCCc1nc2ccccc2c(C(=O)OCC(=O)N2CCc3ccccc32)c1CC | i | 0.05 |
| 5 | COc1cnc(-c2ccccc2)nc1Sc1ccccc1 | i | 2.4 |
| 6 | NS(=O)(=O)c1ccc(NS(=O)(=O)c2ccc(C3CNC(=O)C3)cc2)cc1 (stereo not given) | i | -0.13 |
| 7 | c1ccc2c(c1)ccc1nnnn12 | i | 2 |
| 8 | CCC1CCCCN1CCCNC(=O)Cn1c(=O)c2cccn2c2ccccc21 (stereo not given) | i | -0.03 |
| 9 | Cc1cc2c(c(=O)n1C)C(Cc1ccccc1)C(C#N)=C(N)O2 (stereo not given) | i | 1.1 |
| 10 | CC(C)c1nc(SCc2c(F)cccc2Cl)c2c(=O)n(C)c(=O)n(C)c2n1 | i | 0.71 |
| 11 | COc1ccc(CNC(=O)C(c2ccc(C)o2)N(C(=O)c2csnn2)c2ccc(C(C)C)cc2)cc1 (stereo not given) | -6.1* | 0.91* |
| 12 | COCCC(=O)N1CCc2c([nH]c3ccccc23)C1C(C)(C)C (stereo not given) | i | 0.02 |
| 13 | Cc1cccc(NS(=O)(=O)c2ccc(OCC(=O)N3CCCC3)cc2)c1 | i | -0.08 |
| 14 | Cc1ccc(-c2nnc(N3CCCCC3)c3ccccc23)cc1S(=O)(=O)NCC1CCCO1 (stereo not given) | i | -0.12 |
| 15 | COC(=O)C(C)N(C(=O)c1cccc2ccccc12)c1c(C)cccc1C (stereo not given) | i | 0.7 |
| 16 | O=[N+]([O-])c1ccc2nc(Cl)nc(-c3ccccc3)c2c1 | i | 0.3 |
| 17 | COc1ccccc1NC(=S)N(Cc1ccc(C)cc1)Cc1cccnc1 | i | -0.78 |
| 18 | N#Cc1c(-c2ccccc2)cc(-c2cccs2)nc1SCC(=O)O | i | 0.05 |
| 19 | O=C(COc1ccccc1)Nc1nc(-c2ccc(S(=O)(=O)N3CCOCC3)cc2)cs1 | i | -0.89 |
| 20 | CC(=O)C1C(c2ccc(Br)cc2)C2C(C)=NN=C2CC1(C)O (stereo not given) | i | 1.1 |
| 21 | COc1cc(CCC(=O)Nc2ccc(Br)c(C(F)(F)F)c2)cc(OC)c1OC | i | 1.9 |
| 22 | Cc1ccc(CCNC(=O)C2CCC(=O)N2C2CCCC2)cc1 (stereo not given) | i | -0.78 |
| 23 | CSCCC(NC(=O)C1CCC(C)CC1)C(=O)NCCN1CCC(C)CC1 (stereo not given) | i | 1.5 |
| 24 | NC(=O)CN1C(=O)C(=O)N(Cc2ccccc2Cl)C1=O | i | 0.08 |
| 25 | O=C(NNC(=S)NC(=O)c1ccccc1Cl)c1cccc([N+](=O)[O-])c1 | i | 0.04 |
| 26 | Cc1ccc(Sc2cnc3ccccc3n2)cc1 | i | 0.45 |
| 27 | Cc1cc(C)c2c(N=CN(C)C)c(C(=O)N3CCN(c4ncccn4)CC3)sc2n1 | i | 0.01 |
| 28 | Cc1cccc(NC(=O)c2ccc(S(=O)(=O)N3CCOCC3)cc2)c1C | i | 1.3 |
| 29 | Cc1cc(C(=O)N/N=C/c2ccc([N+](=O)[O-])cc2)c2ccccc2n1 | i | 1.1 |
| 30 | N#Cc1c2c(nc(N)c1-c1ccccc1)CCCCC2 | i | 1.5 |
| 31 | C=CCOC(=O)/C(=C/c1cccnc1)NC(=O)c1ccccc1 | i | 0.19 |
| 32 | CC1(C)CC(=O)C2=C(C1)OC(N)=C(C#N)C2c1ccccc1[N+](=O)[O-] (stereo not given) | i | 17 |
| 33 | Cc1ccc(-c2nnc(SCC(=O)Nc3nc4c(s3)CCCC4)n2C)cc1 | i | -1.3 |
| 34 | CC(=O)NCCC(=O)Nc1cccc(S(=O)(=O)N(C)c2ccccc2)c1 | i | 0.29 |
| 35 | CC1(C)CC(=O)c2c(n(S(=O)(=O)c3ccccc3)c3ccc(NS(=O)(=O)c4ccccc4)cc23)C1 | i | -2.7 |
| 36 | Cc1ccccc1NC(=S)NCc1ccc2c(c1)OCO2 | i | -0.53 |
| 37 | COc1cc2c(cc1OC)C(c1ccc3c(c1)OCO3)C1=C(CC(C)(C)CC1=O)N2 (stereo not given) | i | -0.95 |
| 38 | NC(=O)c1cccnc1Oc1ccc(Cl)cc1 | i | 0.09 |
| 39 | O=C(CSc1nnc(Cc2ccccc2)c(=O)[nH]1)Nc1ccccc1 | i | -0.78 |
| 40 | CCOC(=O)N1CCC(c2cc(=O)n3[nH]c(C)c(-c4ccc(F)cc4)c3n2)CC1 | i | -0.42 |
| 41 | Cc1ccc(C)c(C(=O)CN2Cc3ccccc3C2=O)c1 | i | -0.73 |
| 42 | CN(CCC#N)CC(=O)Nc1ccc(NC(=O)CN(C)CCC#N)cc1 | i | 0.47 |
| 43 | O=C(NCCCN1CCOCC1)c1cc(-c2ccc3c(c2)OCO3)nc2ccccc12 | i | 0.15 |
| 44 | COc1ccccc1NS(=O)(=O)c1cc(C(=O)NCc2ccco2)ccc1C | i | 0.72 |
| 45 | CCOC(=O)C1CCN(C(=O)CN(c2ccc(OC)cc2)S(=O)(=O)c2c(C)nn(C)c2C)CC1 | i | -0.74 |
| 46 | CCc1ccc(N(C(=O)CNC(=O)c2ccco2)C(C(=O)NC2CCCC2)c2ccncc2)cc1 (stereo not given) | i | -0.39 |
| 47 | Cc1ccc(C(=O)C(C)OC(=O)c2nc(Cl)ccc2Cl)cc1 (stereo not given) | i | 0.09 |
| 48 | c1ccc(COc2ccc(CN3CCN(c4ccccn4)CC3)cc2)cc1 | i | -0.14 |
| 49 | CCn1c(COc2ccccc2C)nnc1SCC(=O)Nc1ccc2c(c1)OCCO2 | i | -0.19 |
| 50 | CCn1c(C)nnc1SCC(=O)Nc1ccccc1Cl | i | 0.05 |

(further entries)
| # | SMILES | KCNQ2 inh | KCNQ2 inh baseline |
| --- | --- | --- | --- |
| 51 | Cc1ccc(Cl)cc1N1CCN(S(=O)(=O)c2ccc3[nH]c(=O)ccc3c2)CC1 | i | 1.9 |
| 52 | O=C(Nc1ccccc1)C1=C[C@@H](c2coc3ccccc3c2=O)C[C@@H](OCCCCO)O1 | i | 0.6 |
| 53 | O=C(CC(SCCO)c1ccc2c(c1)OCO2)c1ccco1 (stereo not given) | i | -0.27 |
| 54 | CCCc1cc(=O)[nH]c(SCC(=O)N(C)Cc2ccccc2)n1 | i | 0.23 |
| 55 | CN(C)S(=O)(=O)Oc1ccccc1C(=O)Nc1ccc(F)cc1 | i | -0.69 |
| 56 | O=C(CSc1nnc2c(n1)[nH]c1ccc(F)cc12)Nc1ccccc1F | i | -1.3 |
| 57 | O=C1NCC(COc2cccc3ccccc23)O1 (stereo not given) | i | 0.2 |
| 58 | CC(C)CC(NC(=O)/C(=C/c1ccco1)NC(=O)c1ccc(Br)o1)C(=O)O (stereo not given) | i | -0.32 |
| 59 | Cc1nn2c(NCCN(C)C)c3c(nc2c1-c1ccccc1)CCC3 | i | 0.66 |
| 60 | CCCC(C(=O)Nc1cc(S(=O)(=O)N2CCOCC2)ccc1OC)c1ccccc1 (stereo not given) | i | -0.53 |
| 61 | COc1ccc(-c2noc(C3CCCN(C(=O)c4ccc(F)cc4)C3)n2)cc1 (stereo not given) | i | 0.23 |
| 62 | CCOC(=O)CNC(=O)c1cn(C)c(=O)c2cc(OC)c(OC)cc12 | i | -0.79 |
| 63 | Cc1ccc(NC(=O)CSc2cn[nH]n2)cc1 | i | 3.5 |
| 64 | Cc1ccccc1NC(=S)NC(=O)/C=C/c1ccco1 | i | 1 |
| 65 | COC(=O)c1ccc(COc2ccc(F)cc2)o1 | i | 0.05 |
| 66 | COc1ccccc1N1CCN(C2CCCN(C(=O)c3ccsc3)C2)CC1 (stereo not given) | i | -0.36 |
| 67 | O=C(NCC(=O)N(c1ccc2c(c1)OCCO2)C(C(=O)NC1CCCC1)c1ccco1)c1ccco1 (stereo not given) | i | 0.64 |
| 68 | CCn1c(C)nc2cc(C(=O)N/N=C/c3ccc(O)c(O)c3O)ccc21 | i | -1.6 |
| 69 | CC(=O)Nc1cc2nc(C)n(Cc3ccccc3[N+](=O)[O-])c2nc1C | i | -0.06 |
| 70 | O=C(COC(=O)c1cc(=O)[nH]c2ccccc12)NC(=O)c1ccccc1 | i | 0.78 |
| 71 | CC(=O)Nc1ccc(S(=O)(=O)Nc2ccc(C(=O)NCC(=O)O)cc2)cc1 | i | -0.2 |
| 72 | Cc1cc(Cl)ccc1NC(=O)CCC(=O)O | i | -1.4 |
| 73 | O=C1O/C(=C/C(=O)N2CCOCC2)c2ccccc21 | i | 0.74 |
| 74 | CCCN1CCN(S(=O)(=O)c2ccc3c(c2)OCCO3)CC1 | i | -0.1 |
| 75 | O=C(CCC(=O)NCCCc1ccccc1)NCCCc1ccccc1 | i | 0.1 |
| 76 | COCC(=O)N1CCC(n2nccc2NC(=O)CCOc2ccccc2)CC1 | i | 0.57 |
| 77 | CCCCOC(=O)Cn1c(-c2ccccc2)nc2ccccc2c1=O | i | 0.35 |
| 78 | CC(C)NC(=O)NCCCCCCS(C)=O (stereo not given) | i | 1.2 |
| 79 | Cc1cc(-c2ccccc2)nc(SC(C(=O)O)c2ccccc2)n1 (stereo not given) | i | 4.5 |
| 80 | CCOC(=O)c1cnc(SC)nc1Nc1cccc2ccccc12 | i | -0.35 |
| 81 | CC(C)(C)NC(=O)Cn1cc(C#N)c2cc(Br)ccc21 | i | 0.04 |
| 82 | CC1(C)CC(=O)C2=C(C1)N=c1s/c(=C/c3ccc(F)c(F)c3)c(=O)n1C2c1ccc(F)cc1 (stereo not given) | i | 0.56 |
| 83 | CCN(CCn1cccn1)C(=O)CC1C(=O)NCCN1CCc1ccccc1 (stereo not given) | i | -0.67 |
| 84 | COc1ccccc1CC(=O)N1CCN(S(=O)(=O)c2ccccc2)CC1 | i | 2.8 |
| 85 | COc1cccc(CNC(=O)CSc2ccc(-c3cccs3)nn2)c1 | i | 1.4 |
| 86 | O=[N+]([O-])c1ccccc1/C=C/C=N/n1c(-c2ccccc2)n[nH]c1=S | i | -0.91 |
| 87 | Cc1c(NC(=O)COC(=O)C23CC4CC(CC(Br)(C4)C2)C3)c(=O)n(-c2ccccc2)n1C | i | 0.07 |
| 88 | CSC1=NCCN1S(=O)(=O)c1ccc2ccccc2c1 | i | -0.34 |
| 89 | O=C1C(=O)N(CCS(=O)(=O)c2ccccc2)c2ccc(Cl)cc21 | i | 0.27 |
| 90 | Cc1cc(N)ccc1N=Nc1c(C)n(C)n(-c2ccccc2)c1=O | i | 0.49 |
| 91 | COc1ccc(C(=O)NNC2=NC(C)(C)Cc3cc(C)c(C)cc32)cc1 | i | 1.8 |
| 92 | O=C(NCc1ccco1)C(=O)NCC1OCCCN1S(=O)(=O)c1ccc(Cl)cc1 (stereo not given) | i | -2.3 |
| 93 | O=C(NC(=S)Nc1ccc(S(=O)(=O)Nc2ccccc2)cc1)C1CC1 | i | -1.2 |
| 94 | Cc1cccc(N2CCN(C(=S)c3ccccc3)CC2)c1 | i | -0.46 |
| 95 | Oc1ccc(C2=NNC(=NCc3ccc4c(c3)OCO4)SC2)c(O)c1 | i | -1.8 |
| 96 | COc1cccc(NS(=O)(=O)c2ccc3[nH]cc(C(=O)NCCC(C)C)c(=O)c3c2)c1 | i | 1.5 |
| 97 | Cc1ccc(C2=NNC3(CCOC(C)(C)C3)S2)cc1 (stereo not given) | i | -0.38 |
| 98 | Cc1cc(N2CCCC2)c(F)cc1/C=C\[N+](=O)[O-] | i | 6.5 |
| 99 | NC(=O)COc1ccc(NS(=O)(=O)Cc2ccccc2)cc1 | i | -0.4 |
| 100 | COc1ccc2ccn(S(=O)(=O)c3ccccc3)c2c1 | i | 1 |

Next section:
| # | SMILES | KCNQ2 inh | KCNQ2 inh baseline |
| --- | --- | --- | --- |
| 101 | COc1ccc(Cn2ccnc2SCC(=O)Nc2ccccc2OC)cc1 | -6.1* | 2.1* |
| 102 | CCCCn1c(N)c(N(CC(C)C)C(=O)C2CCCN(C(=O)c3ccc(Cl)cc3)C2)c(=O)[nH]c1=O (stereo not given) | i | 0.01 |
| 103 | Cc1ccc(S(=O)(=O)NCCCN2CCOCC2)c(C)c1 | i | -0.25 |
| 104 | Cc1cc(C(=O)CSc2nnc(N)s2)c(C)n1-c1c(C)n(C)n(-c2ccccc2)c1=O | i | 1.9 |
| 105 | CCOCCCNC(=S)N1CCN(CC)CC1 | i | -1.1 |
| 106 | O=C(Oc1c(-c2ccccc2)c(=O)n2c3c(cccc13)CC2)c1ccco1 | i | -0.66 |
| 107 | Cc1ccc(C)c(N2CCN(C(=O)CCCn3c(=S)[nH]c4cc5c(cc4c3=O)OCO5)CC2)c1 | i | 0.52 |
| 108 | COc1cc(-c2nc3ccc(C)cn3c2Nc2ccc3c(c2)OCCO3)ccc1O | i | 0.06 |
| 109 | Fc1ccc(C2CCCCN2Cc2nc(CC3CC3)no2)cc1 (stereo not given) | i | 1.6 |
| 110 | Cc1ccc(C(=O)Nc2ccc(CN3CCS(=O)(=O)CC3)cc2)cc1C | i | 0.11 |
| 111 | CCN(CC(=O)NC(C)C)Cc1nc2sc3c(c2c(=O)[nH]1)CCC3 | i | 0.11 |
| 112 | c1ccc(COc2ccc(OCCCN3CCCCC3)cc2)cc1 | i | 0.12 |
| 113 | CCCC(=O)N=c1sc2c(OC)ccc(OC)c2n1C | i | -0.41 |
| 114 | O=C(O)CCn1ccc2cc(S(=O)(=O)N3CCCCCC3)ccc21 | i | 0.01 |
| 115 | COc1ccc2ccccc2c1CNCCCN1CCOCC1 | i | 0.14 |
| 116 | COc1cc(C2C(C#N)=C(N)OC3=C2C(=O)CCC3)cc2c1OCO2 (stereo not given) | i | 0.53 |
| 117 | CCc1cccc2c(C#N)cn(CC(=O)NCc3ccco3)c12 | i | -2 |

An excerpt, so the mix of outcomes need not match the whole.
